VDR inh – vitamin D3 receptor (human) inhibition | Potency, µM, for the others: max response, negative = inhibition, usual class: inhibitors | VDR-SRC2-3 peptide fluorescence polarization, 2 h | 400,000 tested, 0.93% active; active = well fitted inhibition curve with a large enough effect; inconclusive = small, poorly fitted or top-dose-only effect, or another doubt; inactive = no such curve, though single readings can be large or run the other way; note: series mostly up to about 120 µM
Target sequence (P11473 whole entry, looked up): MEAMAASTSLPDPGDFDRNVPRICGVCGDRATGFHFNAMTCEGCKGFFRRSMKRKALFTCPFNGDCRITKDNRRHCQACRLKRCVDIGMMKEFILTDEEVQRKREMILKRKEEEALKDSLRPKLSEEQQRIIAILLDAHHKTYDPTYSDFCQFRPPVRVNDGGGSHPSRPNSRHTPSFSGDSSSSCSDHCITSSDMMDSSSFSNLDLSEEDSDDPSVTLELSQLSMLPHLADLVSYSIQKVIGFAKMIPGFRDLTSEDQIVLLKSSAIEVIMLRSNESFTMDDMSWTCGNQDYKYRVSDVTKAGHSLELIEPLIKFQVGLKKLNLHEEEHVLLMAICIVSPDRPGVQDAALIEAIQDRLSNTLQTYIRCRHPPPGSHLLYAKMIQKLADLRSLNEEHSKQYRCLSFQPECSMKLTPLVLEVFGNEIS
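Reagent solutions, kept cold and dark, are dispensed first; compounds are then pinned in at 23 nl, plates briefly spun, and incubated 2 h at ambient temperature. Inhibition of VDR–SRC2-3 peptide binding is read by fluorescence polarization.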
* = called active by the depositor; u = inconclusive; & = joins results of further samples. % is set by controls: 0 for no effect and ±100 for the full control effect; potency is the fitted concentration of half-maximal effect. Only part of the results is shown; count on the stated rates, not on these rows.

Start of the listing, in advance:
VDR inh | SMILES
13.6% | CCC(C)NC(=O)C(NS(=O)(=O)c1ccc2c(c1)c(=O)n(C)c(=O)n2C)c1ccccc1 (centres undefined)
0.2% | COc1ccc(C(=O)NCC(c2ccc3c(c2)OCO3)N2CCN(C)CC2)cc1OC (centres undefined)
-2.5% | Cc1c(NC(=O)CN2C(=O)NC3(CCCC3)C2=O)c(=O)n(-c2ccccc2)n1C
-1.7% | Cc1cc(C)c(S(=O)(=O)N2CCN(C(=O)C3CC3)CC2)c(C)c1

Results (from the top)
VDR inh | SMILES
13.6% | CCC(C)NC(=O)C(NS(=O)(=O)c1ccc2c(c1)c(=O)n(C)c(=O)n2C)c1ccccc1 (centres undefined)
0.2% | COc1ccc(C(=O)NCC(c2ccc3c(c2)OCO3)N2CCN(C)CC2)cc1OC (centres undefined)
-2.5% | Cc1c(NC(=O)CN2C(=O)NC3(CCCC3)C2=O)c(=O)n(-c2ccccc2)n1C
-1.7% | Cc1cc(C)c(S(=O)(=O)N2CCN(C(=O)C3CC3)CC2)c(C)c1
-13.4% | CCN(CC)S(=O)(=O)c1cccc(-c2n[nH]c(=S)n2C)c1
2.7% | COC(=O)CCCC1=CC2=C(c3ccccc3)C(=O)C(C)(OC(=O)C3CCCC3)C(=O)C2=CN1CCCCO (centres undefined)
-17.9% | Nc1ccn(CC(=O)NCc2ccccn2)c(=O)n1
-9.0% | COc1ccc(CNC(=O)C2CCC(=O)N(CC3CCCCC3)C2)cc1 (centres undefined)

The list goes on.
VDR inh | SMILES
2.0%&6.0% | CC(C)(C)c1ccc(C(=O)CCCN2CCC(OC(c3ccccc3)c3ccccc3)CC2)cc1
-0.4% | CCOc1ccc(OCC)c(NC(=O)C2C3C=CC(O3)C2C(=O)NCc2ccco2)c1 (centres undefined)
-11.6% | Cc1ccc(F)c(NC(=O)c2cncn2-c2ccccc2)c1
-11.8% | CCCN(CCC)c1nc(N(CCC)CCC)[nH]c(=O)n1
-9.6% | COc1ccc(-n2c(CNC(=O)COc3ccc(Cl)cc3)n[nH]c2=S)cc1
-21.1% | COCCn1nnnc1C(c1ccc(Cl)cc1)N1CCN(C(=O)c2ccco2)CC1 (centres undefined)
5.7% | CCc1ccccc1NC(=O)CN1C(=O)c2cccnc2Sc2ccccc21
12.8% | CCc1ccc(NC(=O)COc2ccc(/C=C(/C#N)c3nc4ccccc4[nH]3)cc2OC)cc1

The list goes on.
VDR inh | SMILES
0.2% | Cc1[nH]c(=O)c(C#N)c(C)c1CCC(=O)Nc1cc(S(C)(=O)=O)ccc1Cl
-11.7% | Cc1cccc(NS(=O)(=O)c2ccc3c(c2)Cc2cc(S(=O)(=O)Nc4cccc(C)c4C)ccc2-3)c1C
-16.7% | CCOC(=O)c1c(NC(=O)CSc2nncs2)sc(C)c1-c1ccccc1
2.4% | COc1ccc(B(O)O)cc1
-4.7% | CC(=O)Nc1ccc(Oc2cc(C#N)c(C#N)cc2N2CCOCC2)cc1
-8.6% | CCCN(c1ccc(C(C)C)cc1)S(=O)(=O)c1c(C)noc1C
-3.8% | C=CCn1c(=O)c(C(=O)NCCc2ccccc2)c(O)c2ccccc21
13.7% | CCOC(=O)C1=C(N)OC2=C(C(=O)CCC2)C1c1cccnc1 (centres undefined)

(list continues)
VDR inh | SMILES
-18.1% | CCNC(=O)/C(=C\c1ccccc1)NC(=O)/C=C/c1ccccc1
2.8% | CN(C)CCNc1oc(COc2ccc(Cl)cc2Cl)nc1C#N
2.7% | COc1ccc(C2C(C(=O)c3ccco3)=C(O)C(=O)N2CC2CCCO2)cc1 (centres undefined)
-9.1% | CC(C)CCOc1ccc(Oc2nc(N(C)C)nc(N(C)C)n2)nn1
-10.5% | CCOC(=O)c1nnn(-c2nonc2N)c1-c1ccccc1
-22.3% | CCC(=C(c1ccc(OC)cc1)c1ccc(OC)cc1)c1cn(CC(O)CN2CCN(C)CC2)c2ccccc12 (centres undefined)
7.9% | Cc1noc(C)c1CSc1cc(C)c2ccccc2n1
-6.0%&4.7% | O=C(O)CCCCn1c(SCC(=O)Nc2ccccc2C(F)(F)F)nc2ccsc2c1=O

Other entries follow:
VDR inh | SMILES
5.6% | CC1(C)Cc2c(cnn2-c2cccc(F)c2)C(NC(=O)CN2CCCC2=O)C1 (centres undefined)
u | CN(CC(=O)Nc1c(Cl)cccc1Cl)C(=O)Cc1ccc2c(c1)CCC2
9.7%&-1.1% | CC1CCN(S(=O)(=O)c2ccc3c(c2)N(CC(=O)NCCCOC(C)C)C(=O)CO3)CC1
4.6% | O=C(NNC(=O)c1sccc1-n1cccc1)Nc1ccccc1
-5.2% | O=C(/C=C/c1ccccc1)NCC(=O)N/N=C/c1ccco1
-18.7% | O=C1CCSc2c1ccc1ccccc21
1.6% | Cc1ccc2nc(NC(=O)c3nc(SCc4ccccc4C)ncc3Cl)sc2c1
19.7% | CC(=O)Nc1ccc(NC(=O)c2c(-c3ccccc3)noc2C)cn1

Going on with the list.
VDR inh | SMILES
-7.2% | CCCn1c(CN2CCN(C(C)=O)CC2)nc2cc(S(=O)(=O)N(C)C)ccc21
u | CCc1ccc(-c2cc(C(F)(F)F)n3nc(C(=O)Nc4cnn(Cc5ccccc5C)c4)cc3n2)s1
-0.3% | O=C(OCc1ccccc1)[C@@H]1COC(c2ccc(Br)cc2)=N1
6.8% | CC(C)(C)c1ccccc1OCCCCCn1ccnc1
-13.4% | COc1ccc(-c2[nH]ncc2C(=O)NCc2cccc(F)c2)cc1
-10.3% | CCc1cc(=O)[nH]c(SCc2cccnc2)n1
-8.1% | COc1ccc(OC)c(NS(=O)(=O)c2ccc3c(c2)CCC(=O)N3)c1
-2.1% | CCN(CC)S(=O)(=O)c1cc(NC(=O)CSc2nnc(-c3cccs3)o2)ccc1C

Following part
VDR inh | SMILES
-5.0% | CCCCc1ccc(N=N/C(C(=O)Nc2ccc(NC(C)=O)cc2OC)=C(/C)O)cc1
10.4% | O=C(C[C@@H]1C/C=C/CCCC(=O)O[C@H](c2ccccc2)CNC1=O)N[C@H](CO)Cc1ccccc1
8.9% | O=S(=O)(c1ccc(Cl)cc1)N1CCCC1c1nc(-c2ccc(Cl)cc2)no1 (centres undefined)
-1.7% | O=C(CCCc1nc(-c2ccccc2)no1)Nc1cccnc1
6.5% | COc1cccc(-c2csc(N3CCN(C(=S)Nc4ccc(Cl)cc4)CC3)n2)c1
-2.6% | CCCOc1ccc(C(CC(=O)O)NS(=O)(=O)c2ccc(NC(C)=O)cc2)cc1 (centres undefined)
-0.8% | COc1ccc(NC(=O)C2CCN(c3cc(C)nc(-c4ccccc4)n3)CC2)cc1
-8.2% | COc1ccc(N(CC(=O)NCCSc2ccccn2)S(=O)(=O)c2ccccc2)cc1Cl

Some of these compounds in order of formula weight, falling:
VDR inh | SMILES
-8.2% | COc1ccc(N(CC(=O)NCCSc2ccccn2)S(=O)(=O)c2ccccc2)cc1Cl
10.4% | O=C(C[C@@H]1C/C=C/CCCC(=O)O[C@H](c2ccccc2)CNC1=O)N[C@H](CO)Cc1ccccc1
6.5% | COc1cccc(-c2csc(N3CCN(C(=S)Nc4ccc(Cl)cc4)CC3)n2)c1
8.9% | O=S(=O)(c1ccc(Cl)cc1)N1CCCC1c1nc(-c2ccc(Cl)cc2)no1 (centres undefined)
-2.6% | CCCOc1ccc(C(CC(=O)O)NS(=O)(=O)c2ccc(NC(C)=O)cc2)cc1 (centres undefined)
-8.1% | COc1ccc(OC)c(NS(=O)(=O)c2ccc3c(c2)CCC(=O)N3)c1
-1.7% | O=C(CCCc1nc(-c2ccccc2)no1)Nc1cccnc1

The listing continues:
VDR inh | SMILES
14.7% | Cc1ccc(CNC(=O)C2CCN(c3nn4c(=O)cc(C)nc4s3)CC2)cc1
-5.4% | CN(CCc1ccccn1)Cc1ccc(Cl)cc1Cl
-4.8% | CCN(CC)C(=O)CN(c1cc2c(cc1OC)oc1ccccc12)S(=O)(=O)c1ccccc1
6.4% | CCC1CCCCN1C(=O)c1cc2c(=O)n3cccc(C)c3nc2s1 (centres undefined)
-13.4% | O=C(NCCN1C(=O)S/C(=C/c2cccnc2)C1=O)C1=NN(c2ccccc2)C(=O)CC1
-9.0% | Oc1ccc(/C=C/c2ccc3ccccc3n2)cc1
4.6% | CCCCC(O)(C(NC=O)C(=O)OC)C(F)(F)F (centres undefined)
-14.8% | NC(=O)C1(Nc2ccccc2Cl)CCCC1

The list continues.
VDR inh | SMILES
-7.7% | NC(=O)c1cc(S(=O)(=O)Nc2ccccc2)cs1
4.4% | CCOC(=O)Cn1c2c(c(=N)c3c1CCC3)CCCC2
0.9% | CCCCC(CC)COP(=O)(OCC(CC)CCCC)OCC(CC)CCCC (centres undefined)
11.8% | O=C(O)c1ccccc1CSc1ncn[nH]1
-1.1% | CCC(C)(C)C1CCC(=NNC(=S)Nc2cccnc2)CC1 (centres undefined)
1.6% | Cc1nnc(C)c2c(C)n(-c3ccc(Cl)c(N)c3)c(C)c12
4.5% | COc1ccc(NC(=O)c2c([N+](=O)[O-])c(C(C)(C)C)nn2C)cc1
-11.8% | O=C(c1cc2cc(Cl)ccc2o1)N1CCCCCC1

(further entries)
VDR inh | SMILES
-4.6% | CS(=O)(=O)c1nc(-c2ccc(Br)cc2)cc(-c2ccccc2)c1C#N
-20.1% | CCc1nn(C(CC)C(=O)NCC(C)c2ccccc2)c(=O)c2cc3occc3n12 (centres undefined)
-12.0% | COc1cccc(CN(C)CC(=O)Nc2sc3c(c2C#N)CCC3)c1
-3.2% | Cc1nc(N2CCN(c3ccccn3)CC2)c2c(C)c(C(=O)Nc3c(C)cc(Br)cc3C)sc2n1
-11.7% | Cc1c(NC(=O)C(C)N2C(=O)NC3(CCC(C)CC3)C2=O)c(=O)n(-c2ccccc2)n1C (centres undefined)
1.1% | O=C(c1cn(-c2ccccc2)nc1-c1cccs1)N1CCN(c2ccccc2)CC1
4.9% | CCc1c(C)nc2c(-c3ccccc3)c[nH]n2c1=O
-14.1% | O=C1OCC2=C1C(c1ccc(F)cc1)c1cc3c(cc1N2)OCO3 (centres undefined)

(next part)
VDR inh | SMILES
-11.7% | Cc1ccc(-c2csc3nc(C(C)C)oc(=O)c23)c(C)c1
-24.3% | CCOC(=O)Nc1ccc2c(c1)N(C(=O)CN(C)C)c1ccccc1CC2
-13.9% | COc1ccc(NC(=S)NNC(=O)Cn2nc(C(F)F)cc2C(F)F)cc1
-6.0% | Cc1cccc(OC(=O)c2ccc3nccnc3c2)c1
-12.0% | CN(Cc1ccccc1)S(=O)(=O)c1ccc(Cl)c(C(=O)NCc2ccc3c(c2)OCO3)c1
20.2% | CCN1C(=O)c2ccccc2Sc2ccc(C(=O)NC(C)C)cc21
-28.0% | O=C1Nc2ccccc2/C1=N\c1sc2c(c1C(=O)Nc1ccccc1)CCCC2
6.9% | Cc1[nH]c(C)c(S(=O)(=O)NCc2ccco2)c1C(=O)N1CCCCC1

Remaining list, next part
VDR inh | SMILES
-6.3% | OC1(Cc2ccn[nH]2)CCCCC1
-3.5% | CN(C)C=Nc1ncc2c([nH]c3ccccc32)c1C#N
7.3% | CC(CC(=O)Nc1ccc(Cl)c(S(=O)(=O)N2CCOCC2)c1)c1ccccc1 (centres undefined)
-13.6% | COc1ccc(Cl)cc1C(=O)NCc1ccco1
7.3% | COc1ccc(Cn2ccnc2SCC(=O)Nc2ccc(C)cc2C)cc1
8.0% | COc1cccc(OC)c1C(=O)Nc1cc(C)on1
-0.7% | CCOc1cc(N2CCOCC2)c(OCC)cc1NC(=O)CCC1CCCC1
9.6% | CCC(c1nnnn1Cc1ccc(F)cc1)N1CCN(C)CC1 (centres undefined)

Other compounds follow.
VDR inh | SMILES
2.8% | O=C(NCc1ccc(F)cc1)c1ccc(CS(=O)(=O)Cc2ccc(F)cc2)o1
-6.8% | O=c1c(Cl)c(N2CCN(S(=O)(=O)c3ccccc3)CC2)cnn1-c1ccccc1
16.5% | COc1ccc(NS(=O)(=O)c2cccc(-c3nnc4n3CCCCC4)c2)cc1
0.0% | Oc1ccc(/C=N/n2c3ccccc3c3ccccc32)cc1
